Assay outcomes as filed in PubChem.
Sfp PPTase inh: blocks B. subtilis Sfp PPTase activity; Biochemical Sfp PPTase activity, qHTS; Potency, µM, for inactives: max response, negative = inhibition, most hits filed as inhibitors; Q9F4F7; 310,000 compounds, 3.5% hits; AID 1490; active = well fitted inhibition curve with a large enough effect; inconclusive = small, poorly fitted or top-dose-only effect, or another doubt; inactive = no such curve, though single readings can be large or run the other way;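 note: the enzyme is Sfp with the accession as filed and its product quenches rhodamine fluorescence; potency is the fitted concentration of half-maximal effect; 0% = enzyme reaction without inhibitor and -100% = no enzyme wells; top concentration of the series not given in the record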
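Reaction rates are the 30-min fluorescence difference (ex 525, em 598 nm) in wells containing 15 nM Sfp, 5 uM rhodamine-CoA and 12.5 uM BHQ-2-YbbR at pH 7.6 with 10 mM MgCl2.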
gsp agonist: gsp mutant agonism | gsp mutant cells, cAMP HTRF, 30 min; control for the full effect not named in the record | Potency, µM (doses to about 76.9 µM), for inactives: at the top dose activation (cAMP increase), actives largely listed as activators | 340,000 compounds, 0.13% hits; active = well fitted activation curve with a large enough effect; inconclusive = small, poorly fitted or top-dose-only effect, or another doubt; inactive = no such curve, though single readings can be large or run the other way; cell line not stated here;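 note: phosphodiesterase inhibitor Ro 20-1724 added with compounds to block cAMP breakdown; potency is the fitted concentration of half-maximal effect; nearly all actives have a fitted effect of over 60% in size; about a fifth of the inactives were tested at one dose only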
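Cells in DMEM/10% FBS with G418 were pretreated with compounds in DMSO plus […] (300 uM stock) for 30 min at 37C. cAMP was measured by HTRF (cAMP-d2 plus anti-cAMP antibody-K) after 30 min at room temperature.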
D2 ag: activates the human D2 dopamine receptor. AID 624465. activation, % (test concentration not listed). 360,000 compounds, 0.084% hits. P14416. DiscoveRx PathHunter D2 beta-arrestin, luminescence, 90 min; 100% = 57 uM dopamine signal; in the data active = activation above about 40%; inconclusive = about 15% to 40%; inactive = below about 15%; note: compound concentration not given in the record; the text of the record calls up to 30% inactive
Target sequence (P14416 whole entry, looked up): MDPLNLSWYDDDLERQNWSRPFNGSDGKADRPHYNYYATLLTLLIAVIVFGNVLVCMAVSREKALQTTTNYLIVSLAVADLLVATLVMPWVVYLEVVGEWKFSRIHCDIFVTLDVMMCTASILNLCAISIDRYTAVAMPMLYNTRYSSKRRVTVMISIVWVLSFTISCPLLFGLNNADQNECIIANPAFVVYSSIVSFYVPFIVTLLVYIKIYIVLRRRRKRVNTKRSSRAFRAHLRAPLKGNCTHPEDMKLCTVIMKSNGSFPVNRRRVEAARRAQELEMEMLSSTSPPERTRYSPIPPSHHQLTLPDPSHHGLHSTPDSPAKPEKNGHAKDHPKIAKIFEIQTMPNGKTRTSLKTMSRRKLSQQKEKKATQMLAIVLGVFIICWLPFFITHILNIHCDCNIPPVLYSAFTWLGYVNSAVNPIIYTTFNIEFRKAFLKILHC
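DiscoveRx PathHunter D2 beta-arrestin cells (2,100/well) attached overnight, then compound-stimulated 90 min at 37 C in HBSS/10 mM HEPES/0.1% Tween-20 buffer; beta-galactosidase complementation read by luminescence after 1 h at ambient temperature. Dopamine 57 uM final (EC100) as control.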
Menin MLL FP FL: menin-MLL binding inhibition, fluorescein peptide. FP activity change, % at 61.4 µM. 290,000 tested, under 10 active. Fluorescence polarization, fluorescein-MLL peptide displacement from menin; inconclusive = falling polarisation curve, or a change in total fluorescence; inactive = total fluorescence flat and polarisation flat or rising; no compound was filed as active; the % refers to the polarisation; negative = inhibition;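 note: % of control where 0% means no effect; inhibitors lower the polarisation; unlabelled MLL peptide was the positive control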
PINK1 modulator: modulators of PINK1 expression; PINK1 immunofluorescence, high-content cytometry, 24 h; Potency, µM (series often up to 76.6 µM), inactives show top-dose activation (PINK1 increase), usual class: activators; 410,000 compounds, 0.2% hits; AID 624263; active = well fitted activation curve with a large enough effect; inconclusive = small, poorly fitted or top-dose-only effect; inactive = flat fitted curve, though single readings scatter; cell line not stated here;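 note: potency is the fitted concentration of half-maximal effect; % of control where 0% means no effect; nearly all actives have a fitted effect of over 65% in size; a mitochondrial uncoupler was the plate control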
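Measures PINK1 amount and localization on or inside mitochondria by immunofluorescence. Stable cells get compounds at 5 concentrations for 24 hours before fixation and staining; CCCP controls included.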
ClpP mod: qHTS Assay for Activators of ClpP; ATP-dependent Clp protease proteolytic subunit (Bacillus subtilis (strain 168)), P80244; purified B. subtilis ClpP, FRET peptide cleavage, 20 min; Potency, µM (doses to about 57.5 µM), without a hit: at the highest dose activity change, negative = active; 340,000 compounds, 1.9% hits; AID 651965, 2013; active = well fitted falling curve with a large enough effect; inconclusive = small, poorly fitted or top-dose-only effect; inactive = no such curve, though single readings can be large or run the other way; note: potency is the fitted concentration of half-maximal effect; the source files actives as falling curves though it sought activators and does not explain the sign; nearly all actives have a fitted effect of over 65% in size; many hits overshoot -100%
Target sequence (P80244 whole entry, looked up): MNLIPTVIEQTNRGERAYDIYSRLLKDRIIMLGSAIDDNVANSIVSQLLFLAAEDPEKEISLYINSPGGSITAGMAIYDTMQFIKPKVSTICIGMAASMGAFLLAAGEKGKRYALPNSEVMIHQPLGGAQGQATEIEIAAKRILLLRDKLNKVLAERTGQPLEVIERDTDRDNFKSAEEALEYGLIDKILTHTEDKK
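FRET quenching reversal measured ClpP activation: 10 microg/mL B. subtilis ClpP at pH 8 with the FRET-FV decapeptide, read at 430 nm after 320 nm excitation. The 20-min minus 0-min signal was scaled between DMSO/no-enzyme wells and ADEP (5.8 microM final).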
gsp antagonist: antagonists of gsp mutant (McCune-Albright syndrome) | Potency, µM (highest dose often 76.9 µM), inactives show at the highest dose activity change, negative = inhibition, actives largely listed as inhibitors | gsp-mutant cells, cAMP HTRF, 30 min; control for the full effect not named in the record | 340,000 compounds, 0.4% hits; active = falling curve of any shape with a large fitted effect; inconclusive = falling curve, mostly with a smaller effect; inactive = flat or rising curve; cell line not stated here;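 note: intracellular cAMP measured with PDE inhibitor Ro 20-1724 present during compound exposure; potency is the fitted concentration of half-maximal effect; % is set by controls: 0 for no effect and ±100 for the full control effect; nearly all actives have a fitted effect of over 65% in size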
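Cells, 2000/well, grown 16–24 h in DMEM 10% FBS with 0.5 mg/ml G418, then compounds plus […] (300 uM addition stock), 30 min at 37C. cAMP read by HTRF (cAMP-d2 and anti-cAMP antibody-K in lysis buffer) after 30 min RT.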
Active calls of the source: *; ? = inconclusive; . = not tested or not shown; & = joins results of further samples; [ ] = remark or other dose. Random draw from the library; 5.1% or so of the library scored in one or more.

SMILES	Sfp PPTase inh	gsp agonist	D2 ag	Menin MLL FP FL	PINK1 modulator	ClpP mod	gsp antagonist
CCOc1cc(C(=S)N2CCOCC2)ccc1OS(=O)(=O)c1ccccc1	-11.4%	-12.6%	-1.3	-1.0	-0.9%	1.3%	5.9%
CCNC(=S)NCCN1CCCCC1	10.2%	0.3%	0.2	-0.8	6.0%	-0.1%	6.8%
O=C(CNC(=O)N1CC(=O)Nc2ccccc21)NCCCc1ccccc1	.	-6.2%	1.0	.	1.4%	-5.1%	.
O=C(Nc1ccn(-c2ccccc2)n1)c1ccc(S(=O)(=O)N2CCCCCC2)cc1	15.1%	21.6%	-0.8	0.6	-0.4%[38.3 µM]	-2.6%	-8.0%
CC(C)C[C@H](NC(=O)c1[nH]cnc1C(=O)N[C@@H](C)C(=O)OC(C)(C)C)C(=O)OCc1ccccc1	24.4%	8.4%	0.3	0.4	0.5%	2.1%	-11.4%
CCC1(c2ccccc2)NC(=O)N(CC(=O)NNC(=O)c2ccoc2C)C1=O (stereo unspecified)	.	9.2%[15.4 µM]	-4.4	.	-1.3%	0.4%	9.0%
Cc1ccc(Cl)cc1N1CCN(C(=O)C2CCN(S(=O)(=O)c3c(C)nn(C)c3C)CC2)CC1	17.1%	-4.9%[15.4 µM]	-0.3	0.0	-2.4%	-6.1%	39.8µM*
N#Cc1cccnc1N1CCN(C(=O)c2cccc3c2C(=O)c2ccc(Cl)cc2S3(=O)=O)CC1	.	28.1%	12.9	.	2.2%	-1.3%	3.5%
COc1ccc(N2CCN(C(=O)c3cc(-c4ccc(F)cc4)[nH]c3C)CC2)cc1	10.7%	-4.3%	-4.7	-4.3	3.1%	-6.1%	?
O=C(NC(=S)Nc1ccccc1Br)c1ccc2c(c1)OCO2	-1.4%	-0.6%	-2.0	.	10.6%	0.6%	-1.7%
Nc1ccccc1-c1nc2ccccc2[nH]1	3.2%	0.0%	-3.1	0.9	5.7%	?	-11.6%
O=C(NCc1ccccc1)C(c1ccc(O)cc1)N(C(=O)Cn1nnc(-c2cccs2)n1)c1ccc2c(c1)OCCO2 (stereo unspecified)	16.2%	-0.6%	-1.2	-2.3	.	-2.8%	-5.4%
CCOC(=O)/C=C(\C)Sc1cc(=O)oc2ccccc12	0.1%	0.0%	-4.7	4.4	0.7%	-1.5%	0.0%
O=C(COC(=O)C1CCN(S(=O)(=O)c2ccccc2C(F)(F)F)CC1)NCc1ccc(F)cc1	23.7%	-5.4%	0.8	8.1	-1.3%	0.8%	-0.9%
O=C(COc1ccccc1)NCC(c1ccco1)N1CCN(c2ccccc2)CC1 (stereo unspecified)	.	23.0%	-1.2	.	-2.0%	-8.2%	-3.1%
Nc1nsnc1C(=O)NCCO	-11.5%	-44.7%	-0.5	-0.1	1.2%	?	-1.5%
COc1ccc(/C=C2/SC(=S)N(NS(=O)(=O)c3ccc(C)cc3)C2=O)cc1	-9.8%	9.7%[15.4 µM]	-3.9	12.6	-1.4%	.	?
COc1ccc(C(=O)Cn2c(Br)nc3c2c(=O)n(C)c(=O)n3C)cc1OC	-24.2%	-14.0%	-0.3	3.4	9.7%[38.3 µM]	-0.8%	15.2%
O=C(O)C1C2C=CC(C2)C1C(=O)Nc1cccc(F)c1 (stereo unspecified)	8.7%	?	-0.5	-0.5	8.9%[38.3 µM]	0.5%	17.4%
O=C(Nc1ccc2c(c1)OCO2)c1cc(C2CCCCN2C(=O)OCCF)on1 (stereo unspecified)	.	.	-2.6	.	1.5%	1.5%	.
O=C(CNC(=O)c1ccco1)NCC(=O)OC(C(=O)c1ccccc1)c1ccc(Cl)cc1 (stereo unspecified)	9.2%	8.9%	-7.4	-2.6	-0.3%	4.1%	-7.7%
Cc1n[nH]c(C)c1CCCCOc1ccccc1[N+](=O)[O-]	1.0%	-20.6%	5.3	0.3	-1.0%	0.8%	-18.0%
Cc1cc(C)nc(SCCC(=O)N(C)C)n1	50.1µM*	19.4%	-0.9	0.1	0.7%	-2.2%	2.2%
CNC(=O)NC(=S)NC(=O)c1cccc(Cl)c1	-8.6%	-25.6%	-6.9	-2.8	1.4%	.	-1.0%
Cc1cccc(NC(=O)CCNC(=O)c2ccc(Br)cc2)c1C	1.4%	5.5%[15.4 µM]	-1.4	1.5	6.0%	.	-1.3%
COc1cc2c(C(=O)N3CCN(C4CCCCC4)CC3)cn(CC(C)C)c(=O)c2cc1OC	5.6%	-4.9%	-4.7	-5.0	0.7%	-19.4%	-11.1%
CCOc1ccc(C(=O)N2CCSC2=S)cc1	3.8%	-12.5%	-1.3	3.2	-1.1%	1.2%	-8.3%
Cn1cc([N+](=O)[O-])c(C(=O)Nc2ccc3c(c2)OCCO3)n1	8.8%	26.2%	-3.5	3.3	-4.5%[38.3 µM]	0.6%	5.4%
CCOc1ccc(CNc2ccc3c(c2)ncn3C)cc1	-17.4%	-24.4%	-3.2	-1.4	0.1%	31.6µM*	-2.3%
O=C(Cc1ccccc1F)Nc1ccc(S(=O)(=O)N2CCCC2)cc1	.	4.8%	9.4	.	-2.2%	-0.9%	5.2%
CCOC(=O)/C(C#N)=C/c1ccc(OC(=O)c2ccccn2)cc1	50.1µM*	4.3%	1.6	12.8	3.4%	-2.9%	8.1%
C=CCNC(=O)c1sc(SC)cc1-c1ccc(Cl)cc1	-15.5%	12.6%	1.9	1.6	2.3%	0.3%	-14.3%
C=C(C)C(=O)OC1(C(F)(F)F)Oc2cc(C)ccc2NC1=O (stereo unspecified)	13.0%	-51.2%[inhibitor]	-3.4	3.3	-0.3%	-1.2%	-2.6%
O=[N+]([O-])c1ccc(O)c(C=Nc2ccc3c(c2)OCCO3)c1	-8.5%	-4.6%[15.4 µM]	-8.9	2.6	-1.6%	0.3%	-0.2%
CCCCCCCCCC(=O)N[C@H](CN1CCOCC1)[C@H](O)c1ccccc1	-1.9%&-8.0%	.	-5.2	-4.5	0.0%	-2.1%	-5.0%
Cc1ccc(OCC(=O)Nc2cccc(S(=O)(=O)N3CCCCCC3)c2)c([N+](=O)[O-])n1	10.5%	7.6%	1.1	-2.3	0.2%	0.5%	-8.8%
COc1cc(NC(=O)N2CCc3nc(Nc4cc(Cl)cc(Cl)c4)ncc3C2)cc(OC)c1OC	.	.	4.5	.	6.6%	-16.1%	.
CN(CC(=O)NCc1ccc(F)cc1)Cc1cccc(Cl)c1	16.4%	7.1%[15.4 µM]	-3.5	3.9	-0.7%	.	-5.4%
COc1ccc(S(=O)(=O)N2CCN(C(=O)NCc3ccccc3)CC2)cc1	1.5%	?	-7.0	3.0	0.4%	1.7%	10.8%
COCC(=O)Nc1cc([N+](=O)[O-])ccc1C	4.3%	-9.8%	-2.7	1.3	-1.6%	-1.7%	-9.6%
COc1c(N2CCN[C@H](C)C2)c(F)cc2c(=O)c(C(=O)O)cn(C3CC3)c12	3.3%	.	-6.4	0.0	0.2%	4.6%	-9.0%
COc1ccc(NC(=O)COC(=O)CCOc2ccccc2C)cc1Cl	.	-3.5%[15.4 µM]	-3.0	.	0.7%	.	-9.1%
CCN(CCCNc1cc2c(c(N)c1S(=O)(=O)O)C(=O)c1ccccc1C2=O)c1ccccc1	.	6.9%	-10.5	.	1.7%	2.2%	.
Cc1ccc(S(=O)(=O)N2CCCCC2C(=O)Nc2nncs2)cc1 (stereo unspecified)	-22.1%	4.1%	-5.8	0.9	0.1%	-1.1%	3.0%
CCN(CC)CC(O)Cn1c(-c2ccccc2Cl)nc2ccccc21 (stereo unspecified)	21.2%	10.0%	-2.3	-2.8	0.3%	0.7%	2.8%
COc1ccc(NC(=O)OC(C)C)cc1	4.5%	-5.2%	4.6	3.5	1.0%	-2.8%	4.5%
Cc1nc(-c2ccccc2)sc1C(=O)Nc1ccc(S(N)(=O)=O)cc1	4.4%	24.6%	3.5	-0.5	5.7%	.	-13.5%
Cc1ccc(S(=O)(=O)N[C@H](C(=O)N2CCC(C(=O)N[C@@H](CCC(N)=O)C(=O)O)CC2)C(C)C)cc1	20.1%	.	-3.5	-1.1	-0.2%	-5.8%	-6.4%
Cc1cc(N/C=C/C(=O)c2cccc3ccccc23)no1	11.6%	-2.5%	-0.8	1.1	29.9%[38.3 µM]	-2.2%	-7.7%
CCc1ccc(N/C(N)=N/c2nc(CSc3ccccn3)cc(=O)[nH]2)cc1	-8.8%	1.3%	0.5	-2.4	13.9%	.	-16.8%
CCc1nc2ccccc2c(C(=O)OCC(=O)Nc2cccc(S(=O)(=O)NC3=NCCCCC3)c2)c1C	18.1%	-4.3%[15.4 µM]	5.8	0.7	6.4%	.	2.4%
C=C(C)C1Cc2nc(N)nc(C)c2C1 (stereo unspecified)	21.5%	11.5%	0.0	-2.1	-4.1%	-28.8%	5.1%
Cc1noc(C)c1S(=O)(=O)N(C)C[C@H]1OCc2cn(nn2)CCCC(=O)N([C@H](C)CO)C[C@@H]1C	.	-47.0%[inhibitor]	-0.5	.	0.7%	0.5%	.
CCCc1ccc2oc(C(=O)N3CCC[C@H]3CO)c(C)c2c1	0.6%	13.1%	3.9	0.0	0.1%	0.5%	-3.2%
CC(=O)N1CCC(N(CCN2CCOCC2)C(=S)Nc2cc(C)cc(C)c2)CC1	10.1%	25.7%	-4.1	2.5	1.5%	.	-0.3%
CN(c1ccccc1)S(=O)(=O)c1cccc(NC(=O)Cc2ccc(Cl)cc2)c1	.	-14.2%	1.1	.	?	-1.1%	-25.0%
COc1ccc(C=O)cc1OC(=O)N1CCOCC1	10.5%	11.0%	1.0	-4.9	3.5%	.	7.8%
O=C(N/N=C/c1c(Cl)cccc1Cl)c1cccc(F)c1	27.0%	10.5%	-0.5	0.1	9.3%[38.3 µM]	-0.8%	-1.0%
Cc1cc(O)c(C(C)C)cc1N=Nc1ccccc1C(=O)O	5.7%	12.1%[15.4 µM]	-5.1	?	-0.3%	.	?
Cc1occc1-c1nnc(SCc2nc3ccccc3c(=O)n2CC#N)n1C	-8.8%	?	3.8	6.0	-2.7%[38.3 µM]	-0.4%	8.1%
CC(=O)Nc1ccc(N=Nc2c(C)[nH]n(C(N)=S)c2=O)cc1	39.8µM*	-18.7%	-10.4	2.7	2.9%	0.9%	-2.2%
Nn1c(SCC(=O)Nc2ccc(F)cc2)nnc1-c1ccccn1	-1.1%	-22.9%	-0.8	9.3	1.5%	1.2%	-3.3%
